# Compound activity: PubChem BioAssay, National Center for Advancing Translational Sciences (NCATS)
# Cruzain Triton: inhibitors of Trypanosoma cruzi cruzain with detergent | P25779 | purified cruzain, Z-FR-AMC fluorescence, 0.01% Triton | Potency, µM, inactives show max response, negative = inhibition, usual class: inhibitors | actives 0.43% (n = 200,000) | AID 1478;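 also: plate controls were neutral wells for no effect and buffer without enzyme for full effect; nearly all actives have a fitted effect of over 40% in size; top concentration of the series not given in the record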
# Target sequence (P25779 123-467 limits assumed): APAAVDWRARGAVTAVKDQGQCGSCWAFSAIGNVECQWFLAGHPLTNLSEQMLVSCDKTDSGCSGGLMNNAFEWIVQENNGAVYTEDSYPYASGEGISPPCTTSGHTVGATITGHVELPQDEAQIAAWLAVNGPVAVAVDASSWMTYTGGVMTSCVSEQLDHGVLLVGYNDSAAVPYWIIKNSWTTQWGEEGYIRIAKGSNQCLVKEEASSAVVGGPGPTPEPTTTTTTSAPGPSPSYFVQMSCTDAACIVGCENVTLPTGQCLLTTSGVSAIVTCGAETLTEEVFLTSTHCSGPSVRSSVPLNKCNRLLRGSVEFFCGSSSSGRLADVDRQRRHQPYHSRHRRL
#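 Cruzain (1.5 nM) preincubated 15 min at RT with compound in 100 mM sodium acetate pH 5.5, 5 mM DTT, 0.01% Triton X-100. Reaction started with 2 uM Z-FR-AMC; AMC fluorescence (ex 360/em 450 nm) change over 60 s gave rate.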
# 2A StopGo: FMDV 2A StopGo reporter, luciferase signal. human cells with a luciferase reporter of 2A StopGo recoding; control for the full effect not named in the record. Potency, µM (series often up to 57.9 µM), for inactives: at the top dose signal change, negative = less light. actives 1.2% (n = 410,000). AID 1159524; active = well fitted falling curve with a large enough effect; inconclusive = small, poorly fitted or top-dose-only effect; inactive = no such curve, though single readings can be large or run the other way; tested in HEK293T cells; also: % is scaled to controls: 0 for no effect and ±100 for the full control effect; nearly all actives have a fitted effect of over 45% in size; luciferase light after 4 h
# NS1 inh: inhibitors of influenza NS1 protein function; S. cerevisiae slowed by influenza A NS1, growth recovery by OD600; Potency, µM (highest dose often 46.1 µM), without a hit: at the top dose activity, positive = more growth; actives 0.4% (n = 270,000); active means well fitted rising curve with a large enough effect; inconclusive means small, poorly fitted or top-dose-only effect; inactive means no such curve, though single readings can be large or run the other way; also: nearly all actives have a fitted effect of over 50% in size
#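 Read-out: OD600 growth recovery of NS1-expressing budding yeast. Cells grown overnight at 30C in -URA glucose medium, washed, resuspended and diluted 1:100 in 2% galactose assay medium, pH 6.0. Same strain lacking NS1 served as positive control.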
# MARV entry inh: Marburg virus entry inhibition. Marburg virus pseudotyped entry inhibition, cell reporter; control for the full effect not named in the record; about a third of the inactives were read at about 46 µM. Potency, µM (top dose mostly 37.8 µM), without a hit: at the top dose activity change, negative = inhibition, hits mostly inhibitors. actives 1.8% (n = 300,000). AID 540276; active = well fitted inhibition curve with a large enough effect; inconclusive = small, poorly fitted or top-dose-only effect, or effect the other way; inactive = flat fitted curve, though single readings scatter; tested in HEK293 cells; about a fifth of its hits are not listed in these tables; also: % is scaled to controls: 0 for no effect and ±100 for the full control effect; luciferase read-out
# RE007 growth inh: less growth of the S. pombe RE007 Vpr strain; S. pombe RE007 Vpr strain, BacTiter-Glo ATP luminescence, 24 h; control for the full effect not named in the record; Potency, µM (top dose mostly 92.2 µM), for the others: at the highest dose activity change, negative = less growth; actives 0.21% (n = 360,000); active = well fitted falling curve with a large enough effect; inconclusive = small, poorly fitted or top-dose-only effect; inactive = no such curve, though single readings can be large or run the other way;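 also: % is scaled to controls: 0 for no effect and ±100 for the full control effect; nearly all actives have a fitted effect of over 50% in size; the assay follows cell death caused by Vpr and the record does not say whether a fall means rescue or toxicity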
#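 Fission yeast RE007 carrying one integrated HIV-1 vpr copy, seeded at OD 0.01 in PMG+AL medium with 23 nL pinned compound. Grown 24 h at 30 degrees; viability read by BacTiter-Glo luminescence after 5 min.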
# SARS PLpro yeast: blocks SARS-CoV papain-like protease in a yeast assay | Potency, µM (top dose mostly 32.9 µM), for inactives: top-dose activity, positive = growth rescue | S. cerevisiae expressing SARS-CoV PLpro, growth rescue; control for the full effect not named in the record | actives 0.19% (n = 330,000) | AID 485353; active means well fitted rising curve with a large enough effect; inconclusive means small, poorly fitted or top-dose-only effect; inactive means no such curve, though single readings can be large or run the other way; also: 0% is about no effect; nearly all actives have a fitted effect of over 55% in size; growth read by luminescence after 48 h
# LASV entry inh: inhibitors of Lassa virus binding or cell entry; actives 1.2% (n = 300,000); Lassa virus pseudotype entry inhibition, cell reporter; control for the full effect not named in the record; Potency, µM (series often up to 37.9 µM), inactives show at the top dose activity change, negative = inhibition, usual class: inhibitors; AID 540256; active means well fitted inhibition curve with a large enough effect; inconclusive means small, poorly fitted or top-dose-only effect, or effect the other way; inactive means flat fitted curve, though single readings scatter; tested in HEK293 cells; also: % is scaled to controls: 0 for no effect and ±100 for the full control effect; nearly all actives have a fitted effect of over 50% in size; luciferase read-out
# Cruzain noTriton: cruzain (T. cruzi) inhibition without detergent; Potency, µM, without a hit: max response, negative = inhibition, hits mostly inhibitors; P25779; purified cruzain, Z-FR-AMC fluorescence, no detergent; actives 2.3% (n = 200,000);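 also: plate controls were enzyme without inhibitor for no effect and buffer without enzyme for full effect; nearly all actives have a fitted effect of over 40% in size; top concentration of the series not given in the record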
#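 Purified cruzain at 1.5 nM, pre-incubated 15 min with compound at room temperature in 100 mM sodium acetate pH 5.5, 5 mM DTT, 0.00005% Triton X-100. Reaction started with 2 uM Z-FR-AMC; AMC fluorescence increase over 60 s gives rate.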
# * marks the source's active call; other numbers are inactive results; ? = inconclusive; / = no result given; & = joins results of further samples; [ ] = dose if it differs, or a comment. Unless noted, calls follow the shape of the dose curve; as a rule, active = well fitted curve in the direction sought with a large enough effect; inconclusive = small, poorly fitted or top-dose-only effect, or another doubt; inactive = no such curve, though single readings can be large; an effect the other way counts as inactive or inconclusive. Potency is read from the fitted curve at half-maximal effect. No enrichment for hits; any-hit rate near 4.7%.
SMILES,Cruzain Triton,2A StopGo,NS1 inh,MARV entry inh,RE007 growth inh,SARS PLpro yeast,LASV entry inh,Cruzain noTriton
O=C(CN1C(=O)NC2(CCCC2)C1=O)N1CCN(C(=O)c2ccco2)CC1,1.8%,7%,0%,15%,-7%,3%,40%[14.3 µM],-1%
CCOCc1c(C(=O)N2CCN(CCOc3ccc(Cl)cc3)CC2)oc2ccccc12,/,?,/,?,18%,2%,?,/
Cc1cc(C(=O)NC(C)CCc2ccccc2)ccc1[N+](=O)[O-] (stereo unspecified),/,1%,-14%,-1%[46.1 µM],13%,-4%,-28%[46.1 µM],/
Cc1ccc(S(=O)(=O)Nc2nc3ccccc3nc2NCC2CCCO2)cc1C (stereo unspecified),/,50%[activator],-3%,/,0%,0%,/,/
CCCCn1nc(NC(=O)c2cccc(Cl)c2)c2cc3ccc(C)cc3nc21,0.2%,5%,/,1%[46.1 µM],/,/,0%[46.1 µM],-17%
CN(CC(=O)Nc1ccccc1C(F)(F)F)C(=O)CSc1nnnn1C,/,-6%,-2%,-1%[46.1 µM],-14%,-3%,1%[46.1 µM],/
O=C(COC(=O)c1cccc(NS(=O)(=O)c2ccc(F)c(F)c2)c1)NC(=O)NC1CCCCC1,-7.6%,?,?,?,-8%,18%,?,-15%
CCN(CC)c1ccc(/C=C2\NC(=O)NC2=O)cc1,-6.3%,2%,-4%,-13%,10%,6%,-4%,-9%
CS(=O)(=O)N(CC(=O)N1CCOCC1)c1cc(C(F)(F)F)ccc1Cl,/,-3%,3%,/,6%,-7%,/,/
N#Cc1ccccc1OCc1nnc(-c2ccccc2Br)o1,/,31%[activator],-6%,?,-11%,10%,?,/
CCn1c(=O)n(CC(=O)NC2CCCC(C)C2C)c(=O)c2ccccc21 (stereo unspecified),4.5%,-10%,?,-2%,10%,11%,19%,-7%
Nc1ccccc1C(=O)OCC(=O)Nc1ccc(Br)cc1F,-3.4%,32%[activator],-18%,2%,-16%,-2%,-10%,1%
CC(C)n1cc2c(N)ncnc2n1,/,3%,/,-30%,3%,/,4%,/
COc1ccc(-c2cc(C(=O)Nc3cc(Cl)ccc3O)no2)cc1,/,62%[activator],0%,1%,-2%,-3%,/,/
COc1ccccc1CN1CC(C(=O)NCc2ccc(SC)cc2)CCC1=O (stereo unspecified),/,3%,-3%,12%,0%,0%,3%,/
CCC(=O)Nc1ccc2c(c1)nc(CCN1CCN(C)CC1)n2C,4.8%,-23%,8%,4%,-20%,-2%,6%,-5%
COc1ccc(S(=O)(=O)N2CCN(C)CC2)cc1NC(=O)c1ccccc1C,/,-4%,-9%,-5%[46.1 µM],5%,12%,-9%,/
COc1ccccc1CN1CCN(Cc2nc(-c3ccccc3)no2)CC1,/,21%,7%,?,-2%,0%,-24%[46.1 µM],/
COc1ccc(C(=O)NCCS(=O)(=O)N(C)Cc2ccccc2)cc1,/,5%,/,29%,-6%,3%,-8%[46.1 µM],/
Cc1ccc(S(=O)(=O)N(CC(=O)Nc2ccc(Cl)cc2)C(=O)N2CCN(C)CC2)cc1,/,-1%,/,21%,-17%,-2%,7%,/
O=C(N[C@@H](Cc1ccccc1)C(=O)OCc1ccccc1)c1nc[nH]c1C(=O)N1CCc2ccccc2C1,/,-8%,-11%,/,3%,-4%,/,/
O=S(=O)(c1cc(Cl)c(Cl)cc1Cl)N1CCN2CCCC2C1 (stereo unspecified),/,?,16%,/,-9%,3%,/,/
CC(C)(C)C(=O)Nc1cccc(-c2ccc[nH]2)n1,/,4%,/,0%,-8%,/,-16%[46.1 µM],/
Cc1ccc(NC(=O)CCCCCN2C(=O)[C@@H]3Cc4ccccc4CN3C2=O)c(C)c1,/,-8%,0%,/,8%,-4%,/,/
O=C1CNC(=S)N1CCc1ccc(O)c(O)c1,/,1%,?,6%[46.1 µM],-9%,0%,-11%[46.1 µM],/
Clc1ccc(-c2cc(-c3nnc4n3CCCCC4)c3ccccc3n2)cc1,-9.6%,?,-5%,-7%,2%,13%,6%,?
Cc1cc(C(=O)COC(=O)c2ccc[nH]c2=O)c(C)n1-c1ccc(F)cc1,-3.6%,-26%,-16%,?,/,-21%,-13%,-9%
COc1cccc(C(c2sc3nc(-c4ccco4)nn3c2O)N2CCCC2)c1 (stereo unspecified),-1.6%,77%[activator],/,/,/,/,10%[46.1 µM],-1%
CNc1cc(N2CCCC2)ccc1[N+](=O)[O-],/,21%,5%,6%[46.1 µM],-4%,2%,0%,/
C#CCNC(=O)C1=C[C@H](c2coc3ccccc3c2=O)[C@@H](CCCO)[C@H](OCC)O1,/,-5%,-4%,/,7%,-1%,/,/
c1ccc(-c2nc(NCCCn3ccnc3)c3ccccc3n2)cc1,/,-29%,-4%,?,-24%,1%,?,/
O=C(NNC(=O)C12CC3CC(CC(C3)C1)C2)c1cnccn1,1.0%,-13%,3%,-14%,?,?,7%,-13%
CCCCNC(=S)NNC(=O)c1cc(-c2cccnc2)nc2ccccc12,/,22%,-18%,19%,4%,-1%,-1%,/
Cc1onc(-c2ccccc2)c1C(=O)Nc1sc2c(c1C#N)CCC(C)C2 (stereo unspecified),-9.6%,/,-42%,?,2%,-3%,?,-4%
COC(=O)c1cccc(-n2c(CCC(=O)O)ccc2-c2cccs2)c1,-8.4%,-12%&-1%,1%,/,-15%,-1%,2%[46.1 µM],-4%
CC(C)Oc1ccccc1-c1cc(C(=O)N/N=C/c2cccnc2)c2ccccc2n1,/,?,-66%,?,-1%,3%,?,/
COCCNC(=S)N/N=C(\C)c1ccc(-n2ccnc2)cc1,-1.3%,-25%,-4%,?,0%,5%,-8%,-2%
N#CC(=NCc1cccnc1)C1=C(O)c2ccccc2C1=O,/,-5%,-2%,4%[46.1 µM],3%,-2%,-17%[46.1 µM],/
CCN(CCn1cccn1)C(=O)c1cc(COc2cc(C)ccc2C)on1,/,16%,-20%,?,2%,-7%,?,/
COc1ccc(C(=O)/C=C/c2ccc(OC)c(COc3ccccc3F)c2)cc1,-3.4%,?,0%,?,-1%,-28%,-6%,-29%
Cc1cccc(NC(=O)C2Cc3ccccc3CN2C(=O)OCc2ccccc2)c1C (stereo unspecified),-7.3%,-8%,8%,-20%,-4%,-12%,-18%,-2%
COc1ccc(-c2nnn(CC#N)n2)cc1OC,0.4%,-17%,-1%,25%,13%,6%,4%,-5%
Cc1ccc(Cc2nc(-c3cccc(C)c3)no2)cc1,-2.6%,69%[activator],-8%,23%,-9%,-12%,-10%,-2%
Cc1cccc(C)c1N1CCN(C(=O)N2CCCCC2)CC1,/,-4%,-9%,14%[46.1 µM],-9%,0%,?,/
CCCc1cc(=O)oc2c(C)c(OCC(=O)c3ccc(N4CCCC4)cc3)ccc12,0.6%,-10%,11%,?,1%,6%,18%,?
COc1ccccc1C(=O)Nc1ccc(C(=O)/C=C/c2cccs2)cc1,-3.0%,20%,2%,?,-6%,-19%,-6%,-6%
COc1ccc(Cc2nn3c(-c4ccccc4OC)nnc3s2)cc1,-1.0%,-28%,-37%,3%,-18%,-3%,-14%,-5%
COc1ccc2nc(N(Cc3cccnc3)C(=O)c3ccc4c(c3)OCCO4)sc2c1,3.5%,-15%,/,/,/,/,6%[46.1 µM],-18%
Oc1ccc(-c2csc(-c3ccccc3)n2)cc1O,-19%,50%[activator],-199%,-19%,?,-28%,-37%,-3%
COc1ccccc1C(=O)Nc1cccnc1,/,10%,/,22%[46.1 µM],-12%,1%,3%,/
COc1cc(C2c3sc(=O)[nH]c3SC3C(=O)N(c4ccc(Br)cc4)C(=O)C32)ccc1O (stereo unspecified),/,-2%,16%,18%[46.1 µM],12%,2%,1%[46.1 µM],/
CC(=O)Nc1ccc(NC(=O)c2c(-c3ccccc3Cl)noc2C)c(C)c1,/,-19%,-11%,-11%,13%,0%,9%,/
Cc1cc2oc(=O)cc(CN3CCN(Cc4ccc5c(c4)OCO5)CC3)c2cc1C,3.2%,?,-13%,3%,5%,-1%,3%,8%
COc1ccc(OC)c2cc3ccccc3cc12,/,0%,/,-9%,4%,/,-22%,/
COc1ccc(NC(=O)c2ccccc2NS(=O)(=O)c2ccc(C)cc2)c([N+](=O)[O-])c1,-1.8%,-28%,7%,2%,-9%,6%,2%,?
CCOc1ccc(C(=O)NC(C(=O)NCC2CCCO2)C(C)C)cc1 (stereo unspecified),/,-8%,4%,2%[46.1 µM],1%,1%,1%,/
COc1ccc(C(=S)Nc2ccc(C)cc2)cc1,2.3%,39%[activator],-3%,?,-14%,3%,1%,-3%
O=C(c1ccccc1)N1CCN(S(=O)(=O)c2ccccc2)CC1,/,-10%,?,/,-6%,-3%,/,/
Cc1ccc(S(=O)(=O)N2CCCCC2CCNC(=O)C(=O)NC2CCCC2)cc1 (stereo unspecified),/,3%,/,4%,4%,-2%,3%,/
O=C(Nc1ccc(F)cc1)NC1CCCCC1,5.0%,/,-8%,24%,1%,-21%,-14%,0%

# Next part:
SMILES,Cruzain Triton,2A StopGo,NS1 inh,MARV entry inh,RE007 growth inh,SARS PLpro yeast,LASV entry inh,Cruzain noTriton
CC(C)CNC(=O)c1coc(=O)c(Br)c1,-8.8%,?,-3%,?,17%[3.69 µM],9%,16µM*,-7%
COC(=O)c1sc2cccc(F)c2c1S(=O)(=O)N1CCN(c2ccc(C)cc2C)CC1,-5.9%,-25%,/,/,/,/,-23%[46.1 µM],?
CSc1nc(C)cc(-n2ccc(=O)[nH]c2=O)n1,3.7%,14%,1%,-10%,12%,-3%,-13%,7%
COc1ccc(-c2nc(CS(=O)(=O)CC(=O)NC3CCCCCC3)c(C)o2)cc1,/,0%,0%,/,4%,-2%,/,/
COC(=O)c1noc(C)c1-c1ccnn1C(=O)c1ccc(Cl)cc1,/,-2%,-1%,/,-7%,1%,/,/
CCCn1c(=S)[nH]c2cc(Cl)ccc21,/,-10%,-34%,/,-21%,12%,/,/
Cc1ccsc1C(=O)NNC(=O)C1CCCCC1C(=O)O (stereo unspecified),1.3%,43%[activator],8%,9%[46.1 µM],22%,7%,?,7%
CN(C)C(CNS(=O)(=O)c1ccc(Cl)cc1)c1cccnc1 (stereo unspecified),-6.3%,-9%,18%,/,-6%,1%,/,-1%
